Assay outcomes deposited in PubChem BioAssay by several laboratories.
Autofluor counter = flagged as autofluorescent in microsphere protease counterscreen. compound autofluorescence counterscreen, microsphere flow cytometry; active compounds read high. fluorescence intensity (concentration not given with the values). hit rate 3.1% among 360,000. AID 624483;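 active = at least 3 SD above the mean of all compounds, about 16000 in these data; inconclusive = too few beads counted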;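 note: 100 nL of 1 mM stock went into each well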
PrP UTR inh = inhibition of PrP 5' UTR reporter expression; cell-based PrP 5' UTR mRNA reporter, plate reader; inhibition, % (test concentration not listed); hit rate 0.35% among 340,000;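 active = every replicate at 50% or more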;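 note: 0 = median of the neutral control wells; tested in H4 reporter cells; numbers are from one replicate; inactives centre near -14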
BJeLR viability = MLPCN primary cell-based screen for lethality selective to Ras in HRASV12 cells | inhibition, % (concentration not given with the values) | hit rate 0.17% among 300,000 | AID 1554, 2009 | BJeLR (HRASV12) viability, CellTiter-Glo ATP luminescence, 48 h; reference of the scale not given here;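 active = replicate mean above 50%; inconclusive = above 50% but judged a plate artefact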;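 note: 50 nL library stock added to about 25 µL; numbers are from one replicate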
Sa ugtP lethal = growth inhibition of ugtP-null S. aureus, primary screen, RN4220 ugtP deletion, OD600; hit rate 0.54% among 330,000; growth inhibition, % (concentration not given with the values); 16 h; some inactives read as strong as hits; AID 1259309, 2017;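 active = z-score under -3 and OD600 up to 0.15 on both plates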;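 note: plate controls were untreated wells for no effect and antibiotic for full effect; wells of about 80 µL received 100 nL stock; the first replicate is given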
RN4220 kill = growth inhibition of S. aureus RN4220, primary screen, OD600; 16 h; hit rate 0.33% among 330,000; inhibition, % (no concentration beside the values);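 active = z-score of -3 or lower and OD600 up to 0.18 on both plates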;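 note: plate controls were untreated cells for no effect and reference antibiotic for full effect; stock transfer was 100 nL into about 80 µL; one replicate is shown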
Mtb hypoxia inh = PubChem AID 1159583. M. tuberculosis hypoxia-regulated fluorescent reporter, fluorescence. fluorescence inhibition, % (no concentration beside the values). hit rate 0.1% among 300,000;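 active = 35 to 45% if threefold the growth effect, above 45% if 1.5-fold the growth effect; inactive = the rest, general growth blockers included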;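 note: wells of about 50 µL received 100 nL stock; 0% = vehicle wells and 100% = reference inhibitor wells; whole bacteria with a GFP reporter of the hypoxia response; strong numbers were not always called active; many hits fall short of the cut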
Mtb hypoxia inh growth = further read-out of Mtb hypoxia inh, marked with its call; growth inhibition, %; measured here: M. tuberculosis growth (absorbance);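 0% = vehicle and 100% = reference antibiotic; read after six days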
Active calls of the source: *; ? = inconclusive; . = no result given; & = joins results of further samples.

Molecule,Autofluor counter,PrP UTR inh,BJeLR viability,Sa ugtP lethal,RN4220 kill,Mtb hypoxia inh,Mtb hypoxia inh growth
COc1cc(C(=O)Oc2ccc(C=NNC(=O)c3ccncc3)cc2)cc(OC)c1OC,.,.,.,8,0.1,19,18
CC(C)COc1ccc(CNC(=S)N/N=C/c2ccc([N+](=O)[O-])cc2)cc1,?,-6,-5,.,.,.,.
CC1CCCC(NC(=O)CN(C)CC(=O)Nc2cccc(F)c2)C1C (stereo not given),8290,-17,.,-2,-0.3,0,4
CCOC(=O)CNC(=O)N1CCCC(CNS(=O)(=O)Cc2ccccc2)C1 (stereo not given),3183,-4,10,-1,0.6,15,-5
CCOC(=O)c1c(NC(=O)COC)sc2c1CCCC2,9062,-29,2,22,11,.,.
Clc1ccc(N=NN2CCOCC2)cc1,4368,-38,-4,12,14,14,10
COC(=O)Nc1c(-c2ccccc2)nc2ccccn12,11795,-23,6,1,3.3,7,7
O=C(O)CCC(=O)Nc1cccc(C(=O)c2ccccc2)c1,4945,-22,-1,13,3.9,8,17
CCOc1ccc(C(=O)NC2CCN(CC(=O)NCc3cccs3)CC2)cc1,4321,1,3,-8,0.8,-9,-3
COc1ccc(-c2nc(NC(C)=O)sc2-c2ccc(OC)cc2)cc1,3736,-12,-11,16,0.7,-2,9
O=C(OCCN1CCCCC1)c1ccc(Cl)cc1,3218,-16,-1,-1,-5.7,12,11
COCCn1c(SCC(=O)Nc2ccccc2OC)nnc1-c1ccco1,3894,-15,-8,-8,6.6,-9,6
O=C(CSCc1ccccc1)Nc1nccs1,3174,-25,2,-7,-2.9,-6,7
O=C(NN=Cc1cc([N+](=O)[O-])c(N2CCOCC2)cc1N1CCOCC1)c1cccnc1,.,.,.,5,5.9,-2,0
COC(=O)C(Cc1ccccc1)NC(=O)CC(C)CC(=O)Nc1ccc(C)cc1 (stereo not given),3804,-5,-8,4,1.0,2,16
COc1ccccc1C(CNC(=O)c1ccc(S(=O)(=O)N2CCCCC2)cc1)N(C)C (stereo not given),8839,-12,.,0,0.3,8,-5
CNC(=O)NC(=O)CSc1nc2ccccc2n1CCOC,3022,-15,-5,6,4.5,3,3
COc1ccc(C)cc1S(=O)(=O)N1CCN(C(=O)c2ncoc2-c2cccc(C)c2)CC1,3980,-11,-13,13,5.5,-7,-9
CCOC(=O)Nc1nnc(-c2ccccc2OC)s1,2849,-25,6,-6,-0.9,.,.
COc1cccc(NC(=O)CN(C)C(=O)c2cccnc2Nc2cccc(C(F)(F)F)c2)c1,9032,-23,.,-9,-14,11,9

In the list so far, these contain an aryl thioether with sulfur outside any ring:
Molecule,Autofluor counter,PrP UTR inh,BJeLR viability,Sa ugtP lethal,RN4220 kill,Mtb hypoxia inh,Mtb hypoxia inh growth
COCCn1c(SCC(=O)Nc2ccccc2OC)nnc1-c1ccco1,3894,-15,-8,-8,6.6,-9,6
CNC(=O)NC(=O)CSc1nc2ccccc2n1CCOC,3022,-15,-5,6,4.5,3,3

Next section
Molecule,Autofluor counter,PrP UTR inh,BJeLR viability,Sa ugtP lethal,RN4220 kill,Mtb hypoxia inh,Mtb hypoxia inh growth
c1ccc(CNn2nnnc2-c2ccccc2)cc1,19323*,-20,3,-3,7.1,5,5
CC(C)NC(=O)C1CCN(C2CCN(C(=O)c3scc4c3CCCC4)CC2)CC1,6144,-11,5,2,0.2,10,4
CSc1ccc(/C=C(/NC(=O)c2ccco2)C(=O)NCc2ccco2)cc1,4686,-6,-2,6,4.0,9,-14
CN1CCc2nc(SCc3cccc(Br)c3)c(C#N)cc2C1,6312,-1,-9,3,3.2,.,.
COc1ccccc1CNS(=O)(=O)c1ccc(-c2cc(C)no2)cc1,4996,15,45,-4,12,6,5
COc1ccc(Cl)cc1NC(=S)N(CCN1CCOCC1)C1CCN(C(C)=O)CC1,5935,-12,2,7,4.0,13,1
COc1ccc(NC(=O)CSc2ncn(-c3ccccc3)n2)cc1Cl,19084*,-5,6,-1,6.0,0,6
CCOP(=O)(OCC)C(NC(=O)c1ccc(C)cc1)=C(Cl)Cl,2490,-21,-5,5,1.4,6,9
O=C(NN=Cc1ccc(O)cc1)c1ccc(NC(=O)c2ccccc2Br)cc1,.,.,.,2,1.7,8,8
O=c1ccc(/C=C/c2ccccc2)nn1Cc1ccc(F)cc1,2285,-31,11,4,0.4,0,1
O=c1[nH]c(C2CCCN(S(=O)(=O)Cc3ccccc3)C2)nc2c1nnn2Cc1cccc(Cl)c1 (stereo not given),4109,-15,10,7,3.6,2,-4
CNC(=O)c1csc(-c2cccs2)n1,3868,-35,4,2,12,18,15
CNC(=S)NNC(=O)c1sc2cc(C(F)(F)F)cnc2c1-c1ccccn1,4538,-19,-1,4,3.2,3,-23
Cc1cc(NC(=O)CSc2nnc(C3CC3)n2Cc2ccccc2)no1,3117,-8,6,-1,2.7,-2,6
C=CCC(CC(=O)NCCO)C(=O)NC(C)COC(=O)C(CC=C)CC(=O)OC(C)(C)C (stereo not given),.,.,.,-7&-5,3.8&5.6,7&7,6&5
C/C(CS(=O)(=O)c1ccccc1)=N\O,2670,-28,-10,.,.,.,.
Cc1ccc(C(C(=O)NC(C)(C)C)N(Cc2ccc3c(c2)OCO3)C(=O)c2ccc(CN3CCOCC3)o2)o1 (stereo not given),4071,8,-12,13,1.3,-1,8
Cc1ccc(CN2CC(C(=O)Nc3ncc(C)s3)CC2=O)cc1 (stereo not given),6025,-28,.,6,2.5,1,2
Cc1cc(C)c(OCC(=O)OCC(=O)NNC(=O)c2ccccc2F)c(C)c1,5841,-18,.,3,0.5,-1,0
CC(=NNC(=O)c1ccccc1C)c1ccc(NC(=O)c2cccs2)cc1,.,.,.,-4,-3.5,1,9

More entries follow:
Molecule,Autofluor counter,PrP UTR inh,BJeLR viability,Sa ugtP lethal,RN4220 kill,Mtb hypoxia inh,Mtb hypoxia inh growth
N#C/C(=C\c1ccccc1)c1n[nH]c(Cn2cncn2)n1,3241,-26,-12,-6,8.3,7,14
CO/C=C/C#CC1(O)CCN(C)CC1,4135,-17,-2,0,3.7,7,12
CCOc1cc(/C=C2/C(=O)ON=C2C)cc(Br)c1O,3062,6,-4,-4,2.3,.,.
O=C(Nc1ccc(N=Nc2ccccc2)c(NC(=O)C2CCCO2)c1)C1CCCO1 (stereo not given),2111,-18,0,-16,2.0,4,-3
C[C@@H]1CC=C[C@@H]2[C@H]1C(=O)N(Cc1ccccc1)[C@H]2c1cccc(Br)c1,2942,-14,.,0,5.8,-5,1
O=[N+]([O-])c1ccc(CSc2nnc(SCc3ccc(Cl)cc3)s2)cc1,1936,-15,9,9,2.2,7,13
Cc1ccccc1CSc1nnc(Cn2c(=O)sc3ccccc32)n1C,4214,-28,0,-4,4.0,.,.
COc1ccc(C)cc1S(=O)(=O)N(C)CC(=O)NCc1ccccn1,3048,-27,-6,4,3.5,-12,-6
O=c1ccc(OCCOc2ccccc2)nn1-c1ccccc1,2033,-20,-3,4,2.9,15,12
COc1ccc(-c2c([C@H]3[C@H]4C=CC[C@@H](C)[C@@H]4C(=O)N3Cc3ccccc3)ccc3ccccc23)cc1OC,2930,-7,5,.,.,.,.
CCn1cc(Br)c(C(=O)NC(=S)Nc2ccc(C(=O)OC)cc2)n1,2600,-12,8,-9,-0.7,6,-3
Cc1cccc(OCCCCN2CCNCC2)c1,5753,-31,-13,10,3.5,19,10
CC(C)(C)NC(=O)c1cc2c(ccc3ccccc32)oc1=O,4019,-7,14,2,0.3,4,8
CCCCCCn1c(O)c(C=NC2CCN(Cc3ccccc3)CC2)c(=O)[nH]c1=O,3351,-7,19,-8,6.2,5,9
COCC(C)Nc1ncnc2c1cnn2-c1ccc(Cl)cc1 (stereo not given),4597,-43,5,1,0.2,.,.
c1ccc(C2=Nc3cccnc3C(c3ccccc3)=NN2)cc1,3273,-13,2,5,3.2,12,2
COCCNC(=O)C1CCN(S(=O)(=O)c2c(C)noc2/C=C/c2cccs2)CC1,3457,-4,4,4,5.2,3,7
COc1cccc(NC(=O)Cn2c(=O)n(C)c(=O)c3sc4c(c32)COC(C)(C)C4)c1,4740,-22,-5,2,6.0,6,-3
O=C(Cn1cnc([N+](=O)[O-])n1)NN=Cc1cccc2ccccc12,.,.,.,24,-4.3,-1,3
COc1ccc(CCNC(=O)c2cc3sccc3n2C)cc1OC,21768*,-5,8,-6,6.8,-3,1

Additional records
Molecule,Autofluor counter,PrP UTR inh,BJeLR viability,Sa ugtP lethal,RN4220 kill,Mtb hypoxia inh,Mtb hypoxia inh growth
CCOC(=O)CSc1nc2c(sc(=S)n2Cc2ccco2)c(=O)n1-c1ccccc1,11224,-24,14,3,2.1,5,7
COc1ccc(C(=O)N2N=C(c3ccccc3)CC2(O)C(F)(F)F)cc1 (stereo not given),5046,-10,0,-4,25,9,4
COC(=O)c1ccccc1NC(=O)C1COc2ccccc2O1 (stereo not given),4544,-10,8,9,6.8,.,.
CCOC(=O)c1cccc(NC(=O)CCNS(=O)(=O)c2cc(Br)cnc2N)c1,6562,-3,5,-1,4.6,1,0
COc1ccc(S(=O)(=O)N(C)CC(=O)NCCN2CCOCC2)cc1,2873,-21,2,4,0.1,-1,-8
O=C(Nc1ccccn1)C1CCN(C(=O)c2ccc(F)cc2)CC1,?,-32,8,1,-1.8,-11,-7
CCN(C[C@H]1N[C@@](CC)(C(=O)OC)[C@H]2C(=O)N(Cc3ccccc3)C(=O)[C@@H]12)S(=O)(=O)c1ccc(F)cc1,4068,-9,.,1,1.9,6,8
COCCN(C(=O)Cc1ccc(OC)c(OC)c1)c1nc(-c2cc(OC)ccc2OC)cs1,4131,4,2,1,0.7,-7,0
O=C(Cc1n[nH]c(=O)c2ccccc12)OCC(=O)c1ccc2c(c1)OCCO2,6896,50,36,-3,-0.7,2,-2
C/C(CC(=O)Nc1ccc(F)cc1)=N\NC(=O)COc1ccccc1,2073,-53,-9,.,.,.,.

Sorted by molecular weight (largest number first): some entries from above
Molecule,Autofluor counter,PrP UTR inh,BJeLR viability,Sa ugtP lethal,RN4220 kill,Mtb hypoxia inh,Mtb hypoxia inh growth
CCOC(=O)c1cccc(NC(=O)CCNS(=O)(=O)c2cc(Br)cnc2N)c1,6562,-3,5,-1,4.6,1,0
CCOC(=O)CSc1nc2c(sc(=S)n2Cc2ccco2)c(=O)n1-c1ccccc1,11224,-24,14,3,2.1,5,7
COC(=O)c1ccccc1NC(=O)C1COc2ccccc2O1 (stereo not given),4544,-10,8,9,6.8,.,.

3 compounds from above, showing only BJeLR viability and Autofluor counter:
Structure	BJeLR viability	Autofluor counter
COc1ccc(C(=O)N2N=C(c3ccccc3)CC2(O)C(F)(F)F)cc1 (stereo not given)	0	5046
COCCN(C(=O)Cc1ccc(OC)c(OC)c1)c1nc(-c2cc(OC)ccc2OC)cs1	2	4131
CCN(C[C@H]1N[C@@](CC)(C(=O)OC)[C@H]2C(=O)N(Cc3ccccc3)C(=O)[C@@H]12)S(=O)(=O)c1ccc(F)cc1	.	4068
